Compound activity as filed in PubChem BioAssay.
Ecoli growth – E. coli growth inhibition, primary screen, OD600 | Escherichia coli growth, 23 h; hits give low values | OD600 absorbance (concentration not given with the values) | actives 0.21% (n = 330,000);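 active means OD600 absorbance below the run mean of sample wells minus 3.6 SD, in any replicate, cut at about 0.56 in these data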;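 further: stock transfer was 300 nL into about 60 µL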
HNF4A DNA FP – change in binding of human HNF4A to DNA, primary screen, biochemical, fluorescence polarization, FITC-DNA. Hepatocyte nuclear factor 4-alpha (Homo sapiens), P41235. 1 h. activity change, % at 10 µM. actives 0.3% (n = 360,000); in the data active means activity change above about 30%, passing the limit was not always enough;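 further: controls were the assay level and a saturating level of protein; the project sought stronger binding though the title names inhibitors; some compounds called inactive have numbers as strong as hits; positive values seem to mean higher polarization but the record does not say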
rRNA inh HTS – reduced GFP signal of wild-type E. coli, primary screen, bacterial rRNA inhibitor project, GFP/RFP fluorescence, OD600, single point. E. coli WT GFP vs humanized-ribosome RFP mutants, 24 h; hits give low values; DMSO median 0, no signal -100. GFP signal change (wild-type ribosome), % (test concentration not listed). actives 1.6% (n = 350,000). AID 720706, 2013;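 active means significant combined selectivity score with lowered wild-type GFP, culture density cut under 30%, mutant RFP and density less affected; inactive means any of these conditions unmet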; further: one replicate is shown; some compounds called inactive have numbers as strong as hits
B2AR ag – beta2AR agonists driving receptor internalization, primary screen, cell-based, FAP fluorogen, flow cytometry. Beta-2 adrenergic receptor (Homo sapiens), P07550. Am2.2-beta2AR cells; reference of the scale not given here. response, % (no concentration beside the values). actives 0.43% (n = 340,000);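 active means response above a set limit, near 3 SD of response in nonfluorescent compounds, cut at about 42% in these data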;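 further: stock transfer was 100 nL into about 11 µL; a reference agonist was the positive control; negative values mostly stem from fluorescent compounds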
UCH37 DUB inh – inhibitors of human UCH37 deubiquitinase, primary screen, biochemical, Ub-AMC cleavage, fluorescence; Ubiquitin carboxyl-terminal hydrolase isozyme L5 (Homo sapiens), Q9Y5K5; purified proteasome/UCH37; inhibition, % (concentration not given with the values); actives 0.33% (n = 330,000);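 active means mean of two replicates above 20%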;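 further: 0% = compound-free wells with enzyme and 100% = wells lacking proteasome; stock transfer was 100 nL into about 20 µL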
Target sequence (Q9Y5K5 whole entry, looked up): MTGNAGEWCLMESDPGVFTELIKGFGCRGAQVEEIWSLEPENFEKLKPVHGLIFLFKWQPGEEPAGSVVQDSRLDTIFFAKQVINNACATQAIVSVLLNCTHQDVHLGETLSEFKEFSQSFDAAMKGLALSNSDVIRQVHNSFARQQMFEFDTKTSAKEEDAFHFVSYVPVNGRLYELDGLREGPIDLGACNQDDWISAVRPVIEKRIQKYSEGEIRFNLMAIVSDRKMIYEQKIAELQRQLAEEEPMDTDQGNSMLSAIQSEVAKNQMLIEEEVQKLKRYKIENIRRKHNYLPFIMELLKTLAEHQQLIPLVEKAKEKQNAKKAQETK
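Material: human UCH37 enzyme supplied as purified proteasome complex / Amount: 0.15 nM proteasome as dispensed / Buffer or medium: pH 7.4 Tris-HCl (50 mM) with ovalbumin, ATP-MgCl2, DTT / Times: preincubation 30 min, reaction 25 min, room temperature / Technique: AMC fluorescence from Ub-AMC cleavage, excitation 355 nm, emission 460 nm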
ALR inh – inhibitors of human ALR sulfhydryl oxidase, primary screen, biochemical, H2O2 detection, HRP-luminol luminescence, single point. actives 3.8% (n = 290,000). purified ALR, DTT oxidation. inhibition, % (test concentration not listed);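 active means mean and each replicate at 75% or more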;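 further: stock transfer was 7.5 nL into about 7.5 µL; 0% = neutral wells and 100% = wells with inactivated enzyme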
Target sequence (P55789 whole entry, looked up): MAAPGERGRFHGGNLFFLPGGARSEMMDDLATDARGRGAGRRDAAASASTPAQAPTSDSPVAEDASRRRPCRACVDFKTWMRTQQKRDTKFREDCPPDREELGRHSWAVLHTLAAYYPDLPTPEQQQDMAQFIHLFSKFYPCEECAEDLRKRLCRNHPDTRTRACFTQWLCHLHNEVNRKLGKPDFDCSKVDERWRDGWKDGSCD
FGF22 binding – binders of human FGF22 protein, primary screen, FGF22 synaptogenesis inhibitor project, biophysical, thermal shift, single point; recombinant FGF22 thermal shift, SYPRO orange fluorescence; percent of sucrose octasulfate shift, DMSO zero; calls only at 9.99 µM; actives 1.5% (n = 340,000);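 active means melting point raised past a set limit in the mean and every replicate; three in four hits are not shown here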
Target sequence (Q9HCT0 whole entry, looked up): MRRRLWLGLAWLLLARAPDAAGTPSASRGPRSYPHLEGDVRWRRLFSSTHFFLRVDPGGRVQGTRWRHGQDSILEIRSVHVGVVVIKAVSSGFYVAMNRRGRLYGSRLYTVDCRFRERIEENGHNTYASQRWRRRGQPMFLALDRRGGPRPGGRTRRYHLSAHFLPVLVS
rRNA inh HTS OD600 – recorded beside rRNA inh HTS, whose call it bears; OD600 change, %; measured here: OD600 growth;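 optical density of the mix in the first replicate; 0 = DMSO median and -100 = no signal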
rRNA inh HTS RFP – also measured in rRNA inh HTS; calls as there; RFP signal change, %; measured here: RFP humanized mutant strains;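 first replicate; 0 = DMSO median and -100 = no signal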
An asterisk follows results filed as active; i = inactive; / = not tested or not shown; + = active, no number; & = joins results of further samples. Only part of the results is shown (hit frequency here may not be typical).

SMILES	Ecoli growth	HNF4A DNA FP	rRNA inh HTS	rRNA inh HTS OD600	rRNA inh HTS RFP	B2AR ag	UCH37 DUB inh	ALR inh	FGF22 binding
Cc1c(/C=N\NC(=O)C2COc3ccccc3O2)c2ccccc2n1C (configuration not stated)	/	-0.9	/	/	/	10	/	6	/
CCCCn1c(N)c(N(CCOC)C(=O)CCCn2c(=O)oc3ccccc32)c(=O)[nH]c1=O	0.7	2.6	13	14	0.8	15	1.3	/	i
Cc1ccc(NC(=O)Nc2ccc3c(c2)CCC3)c(C)c1	0.7	3.3	16	16	-1.6	-13	3.8	-9	i
O=C1N=c2ccc([N+](=O)[O-])cc2=C1c1sc(=O)[nH]c1O	/	-0.2	9	6	-2.0	20	/	17	i
Cc1ccc(NC(=O)CSc2nnc(C3CC3)n2C)cc1S(=O)(=O)N1CCCCC1	/	2.0	-6	-10	-1.2	-11	/	-1	i
COCCCNC(=S)Nc1cccc(S(=O)(=O)NC2=NCCC2)c1	0.64	-1.6	12	12	3.2	0	-1.0	2	/
CN(C)CCCN1CC(=O)N2[C@@H](Cc3c([nH]c4ccccc34)C2(C)C)C1=O	0.7	2.4	8	13	-0.1	0	1.6	1	i
O=C(Cn1ccc([N+](=O)[O-])n1)NCc1ccccc1	0.72	0.5	8	5	-0.6	1	1.5	-7	i
CSc1ccccc1NC(=O)COc1ccccc1Cl	0.7	1.5	/	/	/	-1	3.1	-9	/
COCCn1nnnc1CN1CCC(O)(c2cccc(C(F)(F)F)c2)CC1	0.66	2.8	-3	3	0.0	-3	0.2	-1	i
Cn1c(CN2CCN(C(=O)c3ccco3)CC2)nc2cc([N+](=O)[O-])ccc21	0.63	-3.4	-3	4	-1.3	0	6.2	-4	i
O=C(CN(C(=O)CNC(=O)c1ccco1)c1ccc(Cl)c(Cl)c1)NC1CCCCC1	0.73	-2.5	-16	-24	7.5	-6	2.6	11	/

Rewritten bar-delimited: 3 of the compounds above
smiles | Ecoli growth | HNF4A DNA FP | rRNA inh HTS | rRNA inh HTS OD600 | rRNA inh HTS RFP | B2AR ag | UCH37 DUB inh | ALR inh | FGF22 binding
COCCCNC(=S)Nc1cccc(S(=O)(=O)NC2=NCCC2)c1 | 0.64 | -1.6 | 12 | 12 | 3.2 | 0 | -1.0 | 2 | /
Cc1ccc(NC(=O)Nc2ccc3c(c2)CCC3)c(C)c1 | 0.7 | 3.3 | 16 | 16 | -1.6 | -13 | 3.8 | -9 | i
O=C1N=c2ccc([N+](=O)[O-])cc2=C1c1sc(=O)[nH]c1O | / | -0.2 | 9 | 6 | -2.0 | 20 | / | 17 | i

Going on with the list.
SMILES	Ecoli growth	HNF4A DNA FP	rRNA inh HTS	rRNA inh HTS OD600	rRNA inh HTS RFP	B2AR ag	UCH37 DUB inh	ALR inh	FGF22 binding
CN1C(=O)S/C(=C\c2ccc(-n3cncn3)cc2)C1=O	0.68	0.7	-22*	-3.3*	6.8*	8	4.5	-3	/
COc1ccc(-c2cc(C(=O)NCCCn3ccnc3)c3ccccc3n2)c(OC)c1	0.66	7.9	5	0	0.3	-22	-12	-2	i
Cc1nn(CCC#N)c(C)c1Oc1ccccc1O	0.7	-0.7	10	2	-4.3	0	1.8	33	i
COc1cccc(-c2nc(-c3ccccn3)no2)c1	0.69	/	/	/	/	/	1.6	1	/
CC(C)C(=O)NC(CC(=O)O)c1ccccc1 (configuration not stated)	0.65	-2.7	9	2	-1.9	-2	3.7	1	i
CC(C)CN1C(=O)c2ccc(C(=O)NCc3ccccn3)cc2C1=O	0.69	4.7	1	3	-1.0	-8	2.2	-1	i
COc1ccc(N(C)S(=O)(=O)c2cccc(C(=O)Nc3ccc(N4CCOCC4)cc3)c2)cc1	0.66	-0.7	-21*	-5.2*	-2.2*	23	4.8	12	+
N#Cc1c(SCC(=O)OCc2ccccc2)nsc1SCC(=O)OCc1ccccc1	0.74	8.3	5	1	-3.4	6	2.2	-3	/
Cc1ccc(CN(C(=O)Cc2cccs2)C(C(=O)NC2CCCC2)c2ccncc2)cc1 (configuration not stated)	0.73	1.3	-2	-6	0.0	-5	1.1	-3	i
O=C(O)c1cc([N+](=O)[O-])ccc1NCCc1ccccc1	0.65	-2.5	-42*	-15*	-10*	7	9.2	3	i
O=C(NC1(C(F)(F)F)OCCO1)c1ccc(F)cc1	0.67	1.1	4	10	-5.1	-3	1.9	-8	i
CN(C)CCSc1nnc2sc3ccccc3n12	0.68	-1.1	/	/	/	-14	0.0	-2	/
COc1ccc(N2CCN(CCNC(=O)Nc3ccc(Cl)cc3)CC2)cc1	0.68	1.0	4	3	-3.8	1	0.8	0	i
CNc1ncnc2c1ncn2[C@H]1CN(CCOC)C[C@@H](CO)O1	/	2.1	6	3	-0.4	/	/	/	i
CCn1cc(CN2CCCC(C(=O)Nc3cccc(-n4cccn4)c3)C2)cn1 (configuration not stated)	/	-1.0	11	12	3.3	/	/	/	i
O=C1CCCc2ccccc2N1Cc1ccc(Cl)cc1Cl	0.79	0.1	/	/	/	-5	5.6	-5	/
Cc1occc1-c1nnc(SCC(=O)c2ccccc2)n1CC1CCCO1 (configuration not stated)	0.69	-1.4	/	/	/	3	-2.0	98*	/
Cc1ccc2nc(C(C)O)[nH]c2c1 (configuration not stated)	0.69	3.4	/	/	/	-6	0.8	-8	/
Cc1ccc(S(=O)(=O)N2CCOCC2)cc1C(=O)Nc1cccc(S(=O)(=O)N2CCCC2)c1	0.69	7.9	-15	-8	-0.8	-1	4.6	-18	i
COc1ccc(CNC(=O)C(c2ccc(O)cc2)N(Cc2ccco2)C(=O)c2snc(C(N)=O)c2N)cc1 (configuration not stated)	0.7	-1.9	4	-12	11	5	-36	/	i
CCC1NC(C(=O)O)Cc2c1[nH]c1ccccc21 (configuration not stated)	0.65	2.0	/	/	/	35	-257	-3	i
C=CCNC(=O)C1CC=CCC1C(=O)O (configuration not stated)	0.67	1.1	/	/	/	0	1.1	-2	/
COc1cccc(NC(=O)Cn2nc(Cc3cccnc3)c3ccccc3c2=O)c1	0.7	-4.6	-3	-5	-4.9	5	2.6	-3	i
O=C(c1cnn2c(C(F)F)cc(-c3ccccc3)nc12)N1CCN2CCCC2C1 (configuration not stated)	0.72	-2.1	2	-1	-0.9	-10	-9.8	-2	/

Ordered by the number under rRNA inh HTS OD600 (ascending): some entries from above
compound | rRNA inh HTS OD600
COc1ccc(CNC(=O)C(c2ccc(O)cc2)N(Cc2ccco2)C(=O)c2snc(C(N)=O)c2N)cc1 (configuration not stated) | -12
COc1cccc(NC(=O)Cn2nc(Cc3cccnc3)c3ccccc3c2=O)c1 | -5
CNc1ncnc2c1ncn2[C@H]1CN(CCOC)C[C@@H](CO)O1 | 3

Remaining list, next part:
SMILES	Ecoli growth	HNF4A DNA FP	rRNA inh HTS	rRNA inh HTS OD600	rRNA inh HTS RFP	B2AR ag	UCH37 DUB inh	ALR inh	FGF22 binding
CCCCCN(C(=O)CCC(=O)OC(C)C(=O)c1ccccc1)c1c(N)n(CCCC)c(=O)[nH]c1=O (configuration not stated)	0.69	5.5	6	1	2.8	-4	2.7	6	i
CC(=O)Nc1sc(C)c(C)c1C(=O)OCC(=O)NCc1ccc(F)cc1	0.71	1.9	-1	7	-2.5	5	-5.6	-1	i
CCN(C(=O)CSc1nnc(-c2ccncc2)n1C)C1CCS(=O)(=O)C1 (configuration not stated)	0.72	-11	/	/	/	1	6.6	2	/
Cn1nc(NC(=O)CC23CC4CC(CC(C4)C2)C3)c2c(F)cccc21	0.72	-2.5	12	12	3.3	1	2.1	-9	i
COc1ccc(-c2c(C)nc3c(-c4ccsc4)cnn3c2N)cc1	0.66	0.2	6	6	-1.5	0	i	-3	i
CCOC(=O)C1=C(c2ccccc2)NC(=S)NC1c1cccc([N+](=O)[O-])c1 (configuration not stated)	0.68	0.3	20	6	-9.1	5	5.2	-2	i
COc1ccc(/C=N/n2c(-c3ccccc3)n[nH]c2=S)cc1	/	-4.2	-5	1	-0.3	1	/	39	i
COc1ccc(Sc2ccc(-c3nc4cnccn4c3NC3CCCCC3)cc2OC)cc1	/	16	7	-20	6.2	15	/	2	i
COc1ccc(N(C(=O)CNC(=O)c2ccco2)C(C(=O)NC2CCCCC2)c2ccncc2)cc1 (configuration not stated)	0.7	-3.3	4	11	-3.1	-17	-0.6	-3	i
CN(C)CCCNC(=S)Nc1ccc(Oc2ccccc2)cc1	0.63	1.7	16	1	2.1	-24	0.4	93*	/
CCN(CC(=O)Nc1cc(Cl)ccc1C)C(=O)c1ccc2c(=O)n3c(nc2c1)CCC3	0.62	-2.0	4	6	2.3	-11	-1.8	-2	/
CC(C)Oc1ccc(F)cc1-c1cc(C(=O)Nc2ccc(C(C)(C)C)cc2)[nH]n1	/	-3.5	18	21	-1.3	/	/	/	i
CC(C)c1ccc(N)c(S(=O)(=O)O)c1	0.64	-6.4	14	10	6.4	0	-0.9	-8	i
CC(NC(=O)CCNC(=O)c1ccccc1Cl)c1ccc(-n2ccnc2)cc1 (configuration not stated)	0.72	-1.2	13	13	1.8	3	4.9	-6	i
CCC(C)NC(=O)CS(=O)Cc1nc(-c2cccc(OC)c2)oc1C (configuration not stated)	0.66	2.1	3	-9	-4.4	2	1.9	99*	i
Cc1cccc(-c2nc(CSCC(=O)N3CCN(Cc4ccc5c(c4)OCO5)CC3)c(C)o2)c1	0.73	-1.3	/	/	/	-8	-3.5	98*	/
COc1ccccc1NC(=O)C(C)OC(=O)CCC1CCCCC1 (configuration not stated)	0.7	6.7	-10	2	4.0	0	-1.0	-1	i
COc1ccc(C2C(C(=O)OCC(=O)NC(C)(C)C)CCC(=O)N2c2ccc(C)cc2)cc1OC (configuration not stated)	0.69	5.0	/	/	/	6	2.9	-15	/
Cc1ccc2cc(CN(Cc3cccs3)C(=O)c3ccco3)c3nnnn3c2c1C	0.7	/	/	/	/	/	-0.4	0	/
CC(C)NC(=O)CCn1ccc2cc(S(=O)(=O)N3CCCC3)ccc21	0.69	15	11	13	-1.0	-7	-0.6	-4	i
O=C1/C(=C/c2ccc(F)c(F)c2)CSc2sccc21	0.77	1.3	/	/	/	-15	4.3	/	/
O=C(Nc1cccc2nsnc12)c1ccc(-c2cccc(Cl)c2)o1	0.75	27	/	/	/	1	-5.4	-38	/
COc1cc(C)c(S(=O)(=O)NC2CC(C)(C)NC(C)(C)C2)cc1C	0.75	0.3	/	/	/	25	-1.1	-2	/
CN1CCN(S(=O)(=O)c2ccc(Cl)cc2)CC1	0.66	3.9&1.9	8&6	15&12	0.5&0.6	-5&7	1.6	0	i
COc1ccc(NC(=O)COC(=O)c2n[nH]c3ccccc23)c(OC)c1	0.65	0.8	-29	-26	-1.0	1	5.2	-2	i
